RE007 growth inh: qHTS Assay for Inhibitors of the HIV-1 protein Vpr; Potency, µM (highest dose often 92.2 µM), for the others: at the top dose activity change, negative = less growth; S. pombe RE007 Vpr strain, BacTiter-Glo ATP luminescence, 24 h; control for the full effect not named in the record; hit rate 0.21% among 360,000; active = well fitted falling curve with a large enough effect; inconclusive = small, poorly fitted or top-dose-only effect; inactive = no such curve, though single readings can be large or run the other way;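 further: on the % scale 0 is the no-effect control and ±100 the full control effect; nearly all actives have a fitted effect of over 50% in size; the assay follows cell death caused by Vpr and the record does not say whether a fall means rescue or toxicity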
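Fission yeast RE007 carrying one integrated HIV-1 vpr copy, seeded at OD 0.01 in PMG+AL medium with 23 nL pinned compound. Grown 24 h at 30 degrees; viability read by BacTiter-Glo luminescence after 5 min.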
NS1 inh: qHTS Assay for Inhibitors of Influenza NS1 Protein Function | S. cerevisiae slowed by influenza A NS1, growth recovery by OD600 | Potency, µM (titrated, usually from 46.1 µM), without a hit: top-dose activity, positive = more growth | hit rate 0.4% among 270,000 | AID 2326, 2010; active means well fitted rising curve with a large enough effect; inconclusive means small, poorly fitted or top-dose-only effect; inactive means no such curve, though single readings can be large or run the other way; further: nearly all actives have a fitted effect of over 50% in size
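S. cerevisiae expressing influenza A NS1, grown in glucose, washed, then diluted 1:100 into pH 6.0 -URA galactose medium with 23 nl compound. Growth recovery read as OD600; NS1-free strain serves as control.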
Cruzain noTriton: qHTS Assay for Promiscuous and Specific Inhibitors of Cruzain (without detergent). Cruzipain (Trypanosoma cruzi), P25779. purified cruzain, Z-FR-AMC fluorescence, no detergent. Potency, µM, inactives show max response, negative = inhibition, usual class: inhibitors. hit rate 2.3% among 200,000;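 further: plate controls were enzyme without inhibitor for no effect and buffer without enzyme for full effect; nearly all actives have a fitted effect of over 40% in size; top concentration of the series not given in the record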
Target sequence (P25779 123-467 limits assumed): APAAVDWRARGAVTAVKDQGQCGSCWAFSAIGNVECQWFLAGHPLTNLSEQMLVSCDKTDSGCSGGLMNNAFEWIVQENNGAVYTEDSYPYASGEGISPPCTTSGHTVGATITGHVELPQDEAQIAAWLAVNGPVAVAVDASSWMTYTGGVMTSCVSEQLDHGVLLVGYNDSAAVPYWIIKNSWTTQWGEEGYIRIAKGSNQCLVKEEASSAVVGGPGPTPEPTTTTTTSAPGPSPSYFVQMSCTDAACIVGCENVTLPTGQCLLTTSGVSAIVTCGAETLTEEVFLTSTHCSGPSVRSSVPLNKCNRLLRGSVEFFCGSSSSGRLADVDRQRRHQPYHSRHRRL
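Purified cruzain at 1.5 nM, pre-incubated 15 min with compound at room temperature in 100 mM sodium acetate pH 5.5, 5 mM DTT, 0.00005% Triton X-100. Reaction started with 2 uM Z-FR-AMC; AMC fluorescence increase over 60 s gives rate.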
2A StopGo: High Throughput Screening for Foot and Mouth Disease Virus Antivirals | human cells with a luciferase reporter of 2A StopGo recoding; control for the full effect not named in the record | Potency, µM (top dose mostly 57.9 µM), without a hit: top-dose signal change, negative = less light | hit rate 1.2% among 410,000; active = well fitted falling curve with a large enough effect; inconclusive = small, poorly fitted or top-dose-only effect; inactive = no such curve, though single readings can be large or run the other way; tested in HEK293T cells; further: on the % scale 0 is the no-effect control and ±100 the full control effect; nearly all actives have a fitted effect of over 45% in size; luciferase light after 4 h
Marburg entry inh: qHTS for inhibitors of binding or entry into cells for Marburg Virus; Marburg virus pseudotyped entry inhibition, cell reporter; control for the full effect not named in the record; about a third of the inactives were read at about 46 µM; Potency, µM (doses to about 37.8 µM), inactives show at the highest dose activity change, negative = inhibition, most hits filed as inhibitors; hit rate 1.8% among 300,000; AID 540276, 2011; active = well fitted inhibition curve with a large enough effect; inconclusive = small, poorly fitted or top-dose-only effect, or effect the other way; inactive = flat fitted curve, though single readings scatter; tested in HEK293 cells; about a fifth of its hits are not listed in these tables; further: on the % scale 0 is the no-effect control and ±100 the full control effect; luciferase read-out
Lassa entry inh: qHTS for Inhibitors of binding or entry into cells for Lassa Virus | Lassa virus pseudotype entry inhibition, cell reporter; control for the full effect not named in the record | Potency, µM (top dose mostly 37.9 µM), inactives show at the top dose activity change, negative = inhibition, actives largely listed as inhibitors | hit rate 1.2% among 300,000; active means well fitted inhibition curve with a large enough effect; inconclusive means small, poorly fitted or top-dose-only effect, or effect the other way; inactive means flat fitted curve, though single readings scatter; tested in HEK293 cells; further: on the % scale 0 is the no-effect control and ±100 the full control effect; nearly all actives have a fitted effect of over 50% in size; luciferase read-out
SARS PLP yeast: qHTS of Yeast-based Assay for SARS-CoV PLP. Potency, µM (highest dose often 32.9 µM), for inactives: at the highest dose activity, positive = growth rescue. S. cerevisiae expressing SARS-CoV PLpro, growth rescue; control for the full effect not named in the record. hit rate 0.19% among 330,000; active means well fitted rising curve with a large enough effect; inconclusive means small, poorly fitted or top-dose-only effect; inactive means no such curve, though single readings can be large or run the other way; further: 0% is about no effect; nearly all actives have a fitted effect of over 55% in size; growth read by luminescence after 48 h
Cruzain inh Det: qHTS Assay for Promiscuous and Specific Inhibitors of Cruzain (with detergent); purified cruzain, Z-FR-AMC fluorescence, 0.01% Triton; Potency, µM, without a hit: max response, negative = inhibition, usual class: inhibitors; hit rate 0.43% among 200,000; Cruzipain (Trypanosoma cruzi), P25779;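 further: plate controls were neutral wells for no effect and buffer without enzyme for full effect; nearly all actives have a fitted effect of over 40% in size; top concentration of the series not given in the record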
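Sodium acetate buffer (100 mM, pH 5.5) containing 5 mM DTT and 0.01% Triton X-100 hosted 1.5 nM cruzain and test compound for 15 min at room temperature. Cleavage of 2 uM Z-FR-AMC was then tracked by fluorescence.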
* hit, by the source's call; ? = inconclusive; · = no result given; & = joins results of further samples; [ ] = remark or other dose. Unless noted, the call rests on the fitted dose curve; in most records, active means well fitted curve in the direction sought with a large enough effect; inconclusive means small, poorly fitted or top-dose-only effect, or another doubt; inactive means no such curve, though single readings can be large; an effect the other way counts as inactive or inconclusive. Potency means the concentration at half of the fitted maximal effect.

SMILES	RE007 growth inh	NS1 inh	Cruzain noTriton	2A StopGo	Marburg entry inh	Lassa entry inh	SARS PLP yeast	Cruzain inh Det
CC1CC2=C(CC1/C=N/NC(N)=S)C(C)(C)CCC2 (stereo unspecified)	28.4%	-113.0%	?	?	?	?	-43.6%	-17.3%
O=C(c1ccc(Cl)cc1)[C@@H]1[C@@H]2C(=O)N(c3ccc(Cl)cc3)C(=O)[C@@H]2C2c3ccccc3C=NN21 (stereo partly specified)	-11.9%	?	?	-24.6%	?	0.4%	-5.3%	1.1%
CCN(CC)CCCn1c2c(c(SCC(=O)Nc3nccs3)nc1=O)CCC2	-5.6%	·	·	-0.3%	?	-15.6%	0.8%	·
Cc1ccccc1N1OC2C(=O)N(c3ccc(F)cc3)C(=O)C2C1c1ccccn1 (stereo unspecified)	-10.4%	-25.4%	7.7%	-18.4%	3.4%	32.3%	-2.6%	-0.3%
O=C(COc1ccccc1Cl)NC(=S)N1CCc2ccccc21	-19.6%	-16.4%	-14.0%	·	2.2%	-1.6%	-0.2%	-5.8%
COc1ccc(C(=O)N(Cc2cc(OC)c(OC)c(OC)c2)CC2CCCO2)cc1 (stereo unspecified)	·	·	10.3%	-1.6%	8.1%[46.1 µM]	?	·	1.2%
COC(=O)c1ccccc1NC(=O)c1sc(=S)n(C)c1N	?	-127.9%	-6.5%	4.1%	23.2%	-10.6%	-7.4%	-2.4%
Cc1ccc(C(=O)OCc2nc(N)nc(Nc3ccccc3C)n2)cc1	4.8%	5.2%	-6.8%	-16.3%	?	?	16.4%	-5.2%
O=C(O)c1cc(-c2ccccc2)n(-c2ccc(Cl)cc2)n1	0.9%	·	·	2.7%	2.1%[46.1 µM]	-2.7%	2.6%	·
N#Cc1cccnc1N1CCC(C(N)=O)CC1	-0.4%	-4.6%	·	-5.4%	-4.0%	·	0.7%	·
CCC(=O)c1ccc(/C=C/c2nc3ccccc3n2C)o1	-22.7%	·	·	-5.5%	?	?	-9.7%	·
CCOC(=O)N1CCN(C(=O)c2oc3ccc(S(=O)(=O)N(CC)CC)cc3c2C)CC1	3.3%	-5.5%	·	0.0%	1.0%[46.1 µM]	?	0.7%	·
Cn1c(=O)c2c(nc(CN3CCN(C(=O)c4ccco4)CC3)n2CCc2ccccc2)n(C)c1=O	-1.1%	-6.3%	?	-1.4%	0.5%	?	-8.8%	-0.1%
CN(C(=O)c1cccc(COc2ccc(Cl)cc2Cl)c1)c1ccccc1	0.0%	-12.5%	5.7%	-35.8%	?	?	·	-9.0%
COC(=O)CN(c1nc(C)c(Br)c(OC)n1)S(=O)(=O)c1ccc(C)cc1	-5.6%	-12.3%[9.22 µM]	-1.8%	?	?	-21.4%	-11.9%	-5.8%
CCc1ccc(NC(=O)Cn2c(=O)oc3cc(S(=O)(=O)N4CCCCCC4)ccc32)cc1	·	·	?	0.0%	-23.5%[46.1 µM]	-11.3%[46.1 µM]	·	-8.9%
OC1CCCN(CC(O)COC(c2ccccc2)c2ccccc2)C1 (stereo unspecified)	1.3%	3.9%	·	-6.1%	-1.5%[46.1 µM]	-21.2%	-4.9%	·
Cc1cccc(N2C(=O)NC(=O)/C(=C\c3cc(C)n(-c4sc5c(c4C#N)CCCC5)c3C)C2=O)c1C	7.5%	6.8%	10.7%	?	?	?	-16.2%	-12.2%
Cc1ccc(CCNC(=O)CCCn2c(=O)c3ccccc3n(Cc3ccccc3C#N)c2=O)cc1	·	·	8.7%	-23.7%	?	-13.1%[46.1 µM]	·	-19.5%
COc1cc(C)ccc1OCC(=O)NCC1CCCO1 (stereo unspecified)	-7.4%	·	·	11.1%	2.2%	18.9%	10.8%	·
COc1ccc(NC(=O)c2cc(S(=O)(=O)N3CCS(=O)(=O)CC3)ccc2Cl)cc1	-11.9%	0.8%	-15.4%	-4.6%	?	-11.6%	5.7%	0.0%
O=C(Cn1nc(C(F)F)cc1C1CC1)N1CCCC1	-10.6%	3.5%	·	8.0%	3.2%[46.1 µM]	7.5%[46.1 µM]	-0.9%	·
O=C(NNC(=O)c1cc2cc(OC(F)(F)F)ccc2[nH]1)c1cccc(C(F)(F)F)c1	-2.8%	-1.4%	·	-27.5%	?	-11.4%[46.1 µM]	1.2%	·
O=C(CSc1ncnc2ccccc12)NC1CCS(=O)(=O)C1 (stereo unspecified)	-5.7%	·	·	-22.4%	?	-2.3%	26.5%	·
COC(=O)c1ccc2nc(NC(=O)C(C)(C)C)sc2c1	-0.6%	·	·	14.1µM*	?	1.12µM*	-7.3%	·
COc1ccc2[nH]c(C(=O)Nc3cccc(C)n3)cc2c1	?	7.4%	·	-43.0%	?	?	0.1%	·
Cc1ccc(Nc2nc(CSc3nnc(-c4ccncc4)n3C)cs2)cc1	5.9%	-8.2%	6.2%	-39.6%	?	?	-8.8%	-4.2%
Cc1cccc(NC(=O)CCCc2ccccc2)c1	-11.6%	-37.6%	·	71.7%[activator]	·	·	-7.9%	·
O=C1OC(Nc2cc(Br)cc3cccnc23)c2ccccc21 (stereo unspecified)	-15.6%	11.4%	-2.5%	-8.8%	-12.4%	-0.2%	-8.1%	-4.2%
Cc1cc2ccccn2c1C(=O)c1ccncc1	-4.6%	-8.9%	-2.9%	·	-4.0%	-16.4%	-7.0%	-2.8%
Cc1cc2c(cc1S(=O)(=O)CCC(=O)NCCc1ccccc1)OCC(=O)N2	-4.8%	-7.8%	-3.9%	-7.7%&-3.2%	·	-0.4%[46.1 µM]	1.8%	-5.8%
COc1ccc(CNS(=O)(=O)c2ccc(S(=O)(=O)N3CCCCC3)cc2)cc1	-0.2%	0.7%	-7.7%	·	13.7%	8.7%	3.1%	2.9%
CC(=O)Nc1ccc2c(c1)c1ccccc1n2C(C)=O	-15.9%	-1.4%	6.2%	-10.6%	-5.9%	6.2%	-7.0%	0.7%
O=C(NCc1ccccn1)Nc1ccc2c(c1)OCO2	32.3%	0.6%	-10.9%	0.0%	-7.1%	21.3%	5.6%	2.4%
COc1ccc(/C=N/NC(=O)Cn2cnc3ccccc3c2=O)cc1	7.2%	-10.7%	4.7%	1.7%	?	-4.8%	12.0%	-1.8%
CN(C)CCCNc1ccc(-c2n[nH]c(=O)c3ccccc23)cc1[N+](=O)[O-]	-19.2%	3.1%	·	-5.2%	·	·	2.7%	·
CCOc1ccc(-c2cccc(NS(=O)(=O)c3ccccc3C(F)(F)F)c2)nn1	·	·	-0.4%	0.0%	·	1.9%[46.1 µM]	·	-8.9%
COc1ccc(-c2nc(SC(C)C(=O)NC3CC3)n[nH]2)cc1 (stereo unspecified)	-12.7%	·	·	17.8%	-6.1%	-13.5%	9.6%	·
CCc1cccc(CC)c1NC(=O)COC(=O)c1cccc(S(=O)(=O)N2CCc3ccccc3C2)c1	2.2%	2.9%	1.9%	-19.3%	?	?	-0.1%	-5.7%
O=C(NCc1cccs1)C1CCC(=O)N(Cc2cccc(C(F)(F)F)c2)C1 (stereo unspecified)	2.9%	0.5%	·	2.1%	5.6%	?	4.4%	·
O=C(CSc1nnc(COc2cccc3ccccc23)o1)N1c2ccccc2CCc2ccccc21	-1.2%	-3.8%	12.6µM*	0.0%	?	?	·	10.5%
CCn1c(SCc2nc(-c3ccc(Cl)cc3)no2)nnc1-c1ccco1	11.4%	-47.1%	11.7%	?	8.4%	-12.4%	-8.1%	-5.6%
Cc1ccc(-n2c(SCC(=O)NCc3ccco3)nc3c(sc4ccccc43)c2=O)cc1	-7.5%	0.9%	?	-24.7%	?	?	8.6%	-12.2%
CCCS(=O)(=O)N1CCN(Cc2ccccc2[N+](=O)[O-])CC1	-18.3%	-51.2%	·	-10.4%	-0.2%[46.1 µM]	-4.3%[46.1 µM]	0.2%	·
Cn1cccc1C(=O)NCc1ccc(Cl)cc1	19.3%	-10.9%	·	-5.2%	-0.2%[46.1 µM]	11.0%	-1.3%	·
CCCNC(=O)CCc1c(C)nc2c(c(C)nn2-c2ccc(C)cc2)c1C	2.5%	1.1%	·	-10.6%	·	·	-1.0%	·
COc1ccc(NC(=O)[C@@H](c2ccccc2)N2Cc3ccccc3C2=O)cc1OC	·	·	?	-14.1%	5.1%[46.1 µM]	-2.0%[46.1 µM]	·	-3.7%
COc1ccc(S(=O)(=O)N(CC(=O)N2CCOCC2)Cc2ccccc2)cc1C	-5.5%	0.9%	?	26.3%	-1.1%	?	10.9%	4.2%
CCC(C)c1ccc(NC(=O)N2CCOCC2)cc1 (stereo unspecified)	79.6%	-26.6%	·	55.0%[activator]	1.1%	-10.2%	-4.6%	·
O=C(COC(=O)c1ccc(S(=O)(=O)C(F)F)cc1)Nc1cccnc1Cl	4.8%	·	·	-12.2%	-9.2%[46.1 µM]	-9.2%	-0.9%	·
(cont.)
SMILES	RE007 growth inh	NS1 inh	Cruzain noTriton	2A StopGo	Marburg entry inh	Lassa entry inh	SARS PLP yeast	Cruzain inh Det
COCC1CCN(c2nc3nonc3nc2N2CCSCC2)C1 (stereo unspecified)	-3.0%	-1.3%	·	1.0%	9.3%[46.1 µM]	-25.1%	0.2%	·
COC(=O)c1ccc(-c2noc(CN(Cc3ccncc3)CC3CCCO3)n2)cc1 (stereo unspecified)	6.7%	-0.3%	·	?	-19.0%[46.1 µM]	6.5%	-0.2%	·
COc1ccc(C2CC(c3cccc(Cl)c3)n3nc(N)nc3N2)cc1 (stereo unspecified)	-3.6%	7.6%	-2.0%	-24.1%	·	·	0.9%	-1.9%
O=C(NCC(c1cccs1)S(=O)(=O)c1ccccc1)c1ccc(C(F)(F)F)cc1 (stereo unspecified)	·	·	4.8%	?	·	·	·	-5.7%
O=C(N/N=C/C(Br)=C\c1ccccc1)c1cccs1	-9.8%	-47.4%	·	35.6%[activator]	?	?	-3.4%	·
